# Screening results from PubChem.
# PINK1 modulator = PINK1 expression modulation; PINK1 immunofluorescence, high-content cytometry, 24 h; Potency, µM (series often up to 76.6 µM), inactives show at the highest dose activation (PINK1 increase), most hits filed as activators; hit rate 0.2% among 410,000; active = well fitted activation curve with a large enough effect; inconclusive = small, poorly fitted or top-dose-only effect; inactive = flat fitted curve, though single readings scatter; cell line not stated here;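 also: potency is read from the fitted curve at half-maximal effect; % of control where 0% means no effect; nearly all actives have a fitted effect of over 65% in size; a mitochondrial uncoupler was the plate control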
#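 Cells are seeded, rested 12 hours, then given compound at five concentrations or DMSO for 24 hours. After fixation, blocking and antibody staining, PINK1 amount and mitochondrial localization are scored; CCCP serves as control.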
# TRPML1 ag = activates the human TRPML1 channel; TRPML1-expressing cells, Ca2+ dye fluorescence, FDSS; host cell line not named in the record; reference of the full effect not given here; hit rate 0.12% among 410,000; activation, % (concentration not given with the values); Q9GZU1; AID 624414; in the data active = activation above about 50%; inconclusive = about 30% to 50%; inactive = below about 30%; also: 0% is about no effect; the text of the record puts the active cut at 80%
# Target sequence (Q9GZU1 whole entry, looked up): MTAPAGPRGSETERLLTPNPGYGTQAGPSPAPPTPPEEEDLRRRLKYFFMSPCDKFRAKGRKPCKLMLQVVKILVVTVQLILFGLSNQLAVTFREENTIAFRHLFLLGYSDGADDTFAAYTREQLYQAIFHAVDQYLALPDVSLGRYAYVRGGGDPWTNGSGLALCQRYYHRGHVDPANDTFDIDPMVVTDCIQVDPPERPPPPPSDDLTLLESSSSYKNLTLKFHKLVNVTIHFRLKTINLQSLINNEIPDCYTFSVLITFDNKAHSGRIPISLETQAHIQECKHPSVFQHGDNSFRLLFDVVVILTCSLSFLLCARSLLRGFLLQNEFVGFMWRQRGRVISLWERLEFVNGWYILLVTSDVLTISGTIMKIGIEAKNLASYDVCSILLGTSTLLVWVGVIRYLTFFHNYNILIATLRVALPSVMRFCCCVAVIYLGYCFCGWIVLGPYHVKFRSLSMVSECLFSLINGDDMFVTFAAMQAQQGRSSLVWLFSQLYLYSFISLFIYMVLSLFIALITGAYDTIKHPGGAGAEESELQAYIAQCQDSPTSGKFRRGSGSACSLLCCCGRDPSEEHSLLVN
#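 In this qHTS format, compounds were pin-transferred onto Ca8-dye-loaded TRPML1-DL cells induced with Tet overnight, and intracellular Ca2+ fluorescence was recorded kinetically for 110 s after a 10 s baseline. A subsequent 4uM final 54-4 (EC80) addition followed by a second 110 s read served as the antagonist phase.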
# * = called active by the depositor. A portion of the library; rates above refer to the full screens.
SMILES,PINK1 modulator,TRPML1 ag
CCCCOc1ccccc1C1CC(=O)Nc2cc(C)c(C)cc21 (stereo not drawn),1.2%,2.2
Cc1cc(C)cc(OCCn2c(C3CC(=O)N(c4ccccc4Cl)C3)nc3ccccc32)c1 (stereo not drawn),3.2%,2.6
O=c1[nH]c2ccc(NCc3ccc(-c4ccc(Cl)cc4)o3)cc2[nH]1,6.8%,-0.3
CC1CN(C(=O)N2CCC(C(=O)NCc3ccccc3F)CC2)c2cc(Cl)ccc2O1 (stereo not drawn),-0.8%,-0.8
COc1ccccc1NC(=O)CSc1oc(-c2ccco2)nc1S(=O)(=O)c1ccc(C)cc1,-0.1%,-0.6
O=C(CSc1ccccc1)NCc1ccc2c(c1)CCN2C(=O)c1ccccc1,1.6%,0.1
COc1ccc(NC(=O)Cn2c(=O)oc3cc(S(=O)(=O)NCc4ccccc4)ccc32)c(OC)c1,-1.1%,0.5
CCOc1ccccc1NC(=O)c1ccc(F)c(S(=O)(=O)N2CCN(c3ccc(F)cc3)CC2)c1,0.6%,2.7
O=c1c(N2CCc3ccccc3C2)csc2ccc(F)cc12,1.5%,2.8
CCCCNC(=O)CSc1nc(-c2ccc(OC)cc2)cc(C(F)(F)F)n1,5.7%,1.0
Cc1ccc(CNC(=O)CN2C(=O)C3(SCC(=O)N3c3ccc(F)c(F)c3)c3ccccc32)cc1 (stereo not drawn),-5.4%,1.2
COc1ccc2nc(NC(=O)c3nc(S(=O)(=O)Cc4ccc(C)cc4)ncc3Cl)sc2c1,9.9%,1.6
CCOc1ccc(C(=O)NCCc2sc(-c3ccc(F)cc3)nc2C)cc1,10%,1.6
COc1cc(OC)c(NC(=O)Cn2c(=O)cc(C(F)(F)F)c3c(C)nn(C)c32)cc1Cl,1.0%,0.3
COc1ccc(-c2cc(C(C)=O)c(C)n2CCC(=O)Nc2cc(C)ccc2OC)cc1,0.1%,3.9
COc1cc(CNC(=O)c2ccc3c(c2)c(C)c(C)n3Cc2cccc(C)c2)cc(OC)c1OC,-1.2%,0.0
O=C(Nc1ccccc1Cl)C1CCN(c2nc3ccccc3[nH]2)CC1,1.5%,1.3
CCC(Cn1nnc2ccccc2c1=O)NC(=O)Nc1ccc(C)cc1 (stereo not drawn),0.5%,0.6
CCOc1ccccc1NC(=O)CSc1nc(=O)[nH]c2c1CCCC2,1.9%,-0.2
CCc1ccc(C(=O)NC(Cc2c[nH]c3ccccc23)C(=O)OCC(=O)c2ccc(Br)cc2)cc1 (stereo not drawn),-0.7%,2.4

# Two records drawn at random from the list so far, as already listed:
SMILES,PINK1 modulator,TRPML1 ag
CC1CN(C(=O)N2CCC(C(=O)NCc3ccccc3F)CC2)c2cc(Cl)ccc2O1 (stereo not drawn),-0.8%,-0.8
COc1ccc2nc(NC(=O)c3nc(S(=O)(=O)Cc4ccc(C)cc4)ncc3Cl)sc2c1,9.9%,1.6

# Following part
SMILES,PINK1 modulator,TRPML1 ag
CN(C)/[N+]([O-])=N/Oc1cc(F)c([N+](=O)[O-])cc1[N+](=O)[O-],-1.1%,1.4
Cc1ccccc1NC(=O)Nc1ccc2nc(N3CCN(C)CC3)cc(C)c2c1,0.7%,1.3
O=C(CSc1nc2nccnc2c(=O)n1CCc1c[nH]c2ccccc12)Nc1ccccc1F,-0.2%,0.3
CCc1cccc(-n2nnc(-c3nc(-c4ccccc4Cl)no3)c2N)c1,1.2%,0.6
COc1ccc(-c2nnc(SCC(=O)N3CCc4ccccc43)o2)cc1OC,-0.5%,-0.3
COC(=O)c1ccc(NC(=O)N2CCC(CN3CCc4ccccc4C3)CC2)cc1,-0.1%,2.5
Nc1nc(N)c2snnc2n1,0.1%,0.1
COC(=O)c1ccc(NC(=O)CC2C(=O)N(c3ccc(F)cc3)C(=O)N2Cc2ccc(OC)cc2)cc1 (stereo not drawn),0.0%,2.2
Cc1ccc2c(=O)cc(C(=O)Nc3nnc(CC(C)C)s3)oc2c1C,1.0%,1.3
Cc1ccc(-c2nnc(Nc3ccc(O)cc3)c3ccccc23)cc1S(=O)(=O)N1CCN(C)CC1,3.8%,-1.0
Nc1nnc(SCC(=O)Nc2ccc(Cl)cc2)s1,3.7%,-1.1
COC(=O)c1ccccc1N(C)S(=O)(=O)c1cc2c3c(c1)CC(=O)N3CCC2,3.6%,-0.8
CCOC(=O)c1ccc(N2CCN(c3ccc(F)cc3)CC2)c(NC(=O)Nc2ccc(CC)cc2)c1,1.1%,0.3
COc1ccc(NC(=O)c2sc3nc4c(cc3c2N)CN(Cc2ccccc2)CC4)c(OC)c1,3.2%,2.1
CC1CCCN(S(=O)(=O)c2cc3c4c(c2)CC(=O)N4CCC3)C1 (stereo not drawn),0.0%,-0.8
CN(C)c1ccc(CNc2nc(-c3ccco3)nn2C(=O)c2cccc([N+](=O)[O-])c2)cc1,-1.2%,-0.6
Cc1ccc(N(CC(=O)NCc2ccc(Cl)cc2)S(=O)(=O)N(C)C)cc1,-1.3%,2.6
CCOC(=O)c1[nH]c(C)c(CCC(=O)NCc2ccc(OC)cc2)c1C,-0.8%,-1.0
Cc1cc(C)cc(NC(=O)Cn2c(=O)n(CC(=O)NCCc3ccccc3)c(=O)c3ccccc32)c1,5.9%,0.2
Cc1ccc(NC(=O)N2CCN(C)c3ncccc32)cc1C,2.4%,-0.5

# Entries listed so far that contain an aryl thioether with sulfur outside any ring:
SMILES,PINK1 modulator,TRPML1 ag
COc1ccccc1NC(=O)CSc1oc(-c2ccco2)nc1S(=O)(=O)c1ccc(C)cc1,-0.1%,-0.6
O=C(CSc1ccccc1)NCc1ccc2c(c1)CCN2C(=O)c1ccccc1,1.6%,0.1
CCCCNC(=O)CSc1nc(-c2ccc(OC)cc2)cc(C(F)(F)F)n1,5.7%,1.0
CCOc1ccccc1NC(=O)CSc1nc(=O)[nH]c2c1CCCC2,1.9%,-0.2
O=C(CSc1nc2nccnc2c(=O)n1CCc1c[nH]c2ccccc12)Nc1ccccc1F,-0.2%,0.3
COc1ccc(-c2nnc(SCC(=O)N3CCc4ccccc43)o2)cc1OC,-0.5%,-0.3
Nc1nnc(SCC(=O)Nc2ccc(Cl)cc2)s1,3.7%,-1.1

# (list continues)
SMILES,PINK1 modulator,TRPML1 ag
COc1ccc2c(c1)Cc1sc(NC(=O)c3ccccc3Br)nc1-2,1.8%,0.6
CCOC(=O)c1c(S(=O)(=O)NCC(=O)Nc2ccc(Cl)c(C(F)(F)F)c2)c(C)n(C)c1C,4.1%,3.4
O=C(Cn1c(=O)n(-c2ccccc2)c(=O)c2c3c(sc21)CCCC3)Nc1ccc(F)cc1F,2.7%,0.2
Cc1ccc(Cn2c3ccccc3c3cnn(CC(=O)Nc4cc(Cl)ccc4C)c(=O)c32)cc1,-1.3%,0.7
CCOc1ccccc1-n1ccnc(NCc2ccc(F)cc2)c1=O,-0.7%,0.0
CCCCN(C)CCNC(=O)c1c2c(nc3ccccc13)C(=O)N(C1CCCCC1)C2,1.7%,-0.8
Cc1ccc(NC(=O)CSc2cn(CC(=O)N3CCCCCC3)c3ccccc23)cc1,-0.3%,-1.2
COc1ccc(-c2ccc(NS(=O)(=O)c3ccccc3)cc2)nn1,1.4%,-1.3
CCc1ccc(NC(=O)C2CCC(CNS(=O)(=O)c3cccs3)CC2)cc1 (stereo not drawn),1.6%,3.4
O=c1c2ccccc2nc(/C=C/c2cccc3ccccc23)n1-c1ccc(F)cc1F,0.0%,2.2
COc1cccc(CNC(=O)CCCN2C(=O)CSc3c2c(C)nn3-c2ccccc2)c1,-1.1%,0.4
Cc1ccc(NC(=O)c2cccn2-c2nnc(N3CCCCC3)s2)cc1Cl,1.1%,0.7
Cc1ccc(NC(=O)c2cnn3c2NC(c2ccccc2)=CC3c2ccccc2)cc1 (stereo not drawn),-1.6%,0.9
CCOc1ccc(-c2nnc(SCC(=O)N(CC)c3cccc(C)c3)o2)cc1,-0.8%,-0.6
Cc1nnc(NCc2ccc(Cl)cc2)c2c1nnn2Cc1ccc(F)cc1,-0.8%,-0.4
CC(=O)Nc1ccc(S(=O)(=O)N2CCN(c3ccc(C)c(C)c3)CC2)cc1,4.7%,3.0
COc1ccc(CNC(=O)C(=O)NCC(c2ccco2)S(=O)(=O)c2ccc(Cl)cc2)cc1 (stereo not drawn),3.0%,1.3
O=C(Cn1cc(C(=O)c2ccco2)c2ccccc21)Nc1ccc(Br)cc1,0.3%,0.4
Cc1ccc(NC(=O)Cn2c(=O)ccc3cc(S(=O)(=O)N4CCCC4)ccc32)cc1C,0.3%,0.3
Brc1cccc(-c2nnc(CN3CCN(c4ccccn4)CC3)o2)c1,-0.5%,0.6
COc1cccc(CNC(=O)CCn2cnc3ccccc3c2=O)c1,2.5%,-0.8
CCCOC(=O)c1c(NC(=O)c2cc3ccccc3c(=O)o2)sc2c1CCC(C)C2 (stereo not drawn),1.1%,1.5
Cc1cccc(NC(=O)Cn2c(=O)n(CCC(C)C)c(=O)c3cccnc32)c1,-1.3%,-0.1
Cc1ccc(NC(=O)Cn2nnc(-c3nc(-c4ccncc4)no3)c2N)c(C)c1,0.6%,0.5
COc1cccc(C(=O)Nc2cccc(OCc3cc(=O)n4c5c(sc4n3)CCCC5)c2)c1,0.7%,0.6
COc1ccccc1NC(=O)C1CCC(CNS(=O)(=O)c2ccc3c(c2)CC(C)N3C(C)=O)CC1 (stereo not drawn),-0.3%,1.6
Cc1ccc(C)c(CN2C(=O)c3ccccc3S(=O)(=O)c3ccc(C(=O)NCCCN4CCCC(C)C4)cc32)c1 (stereo not drawn),1.3%,3.8
CCOc1ccc(-c2nonc2NC(=O)c2oc3cc(Br)ccc3c2C)cc1,7.8%,-0.5
CCOC(=O)c1cc(-c2ccccc2)n(-c2cccc(C(=O)Nc3ccc(F)c(F)c3)c2)c1C,4.6%,1.3
Cc1ccc(N2C(=O)CSC23C(=O)N(CC(=O)Nc2ccc(C)cc2C)c2ccccc23)cc1 (stereo not drawn),-5.9%,3.4
CCCCn1cc(S(=O)(=O)c2cccc(C)c2)c(=O)c2cc(F)c(N3CCOCC3)cc21,-7.1%,2.3
CC(=O)OCC1=C(C(=O)O)N2C(=O)C(NC(=O)Cc3ccccc3)C2SC1 (stereo not drawn),-0.2%,-0.3
Cc1ccc(C)c(NC(=O)CSc2nc3nccnc3c(=O)n2CCc2c[nH]c3ccccc23)c1,-0.2%,0.2
CCc1ccc(NC(=O)Cn2c(=O)n(CCCCC(=O)NCc3ccccc3Cl)c(=O)c3ccccc32)cc1,2.9%,-0.5
CN1C(=O)c2ccccc2Sc2ccc(NC(=O)N3CCN(c4ccccc4F)CC3)cc21,0.4%,-0.2
CCOc1ccc(N2CC(NC(=O)CCc3ccccc3)CC2=O)cc1 (stereo not drawn),1.3%,0.1
CC(=O)Nc1ccc(-c2nnc3n(CC(C)C)c(=O)c4ccccc4n23)cc1,0.7%,-0.5
CCc1nc2ccc(C(=O)N3CCN(c4cc(Cl)ccc4C)CC3)cc2nc1CC,1.6%,-0.3
Cc1ccc(C2CC(=O)Nc3cc4c(cc32)OCCO4)cc1 (stereo not drawn),0.8%,-0.9
CCC1CN(C(=O)N2CCC(C(=O)NCc3cccc(C)c3)CC2)c2ccccc2O1 (stereo not drawn),0.1%,1.8
N#Cc1nc(-c2ccccc2)cc(-c2ccccc2)n1,2.1%,1.2
CCc1nn(CC(=O)NCCc2ccc(SC)cc2)c(=O)c2cc3sccc3n12,-0.2%,-0.1
CCCN(c1ccc(C(C)C)cc1)S(=O)(=O)c1ccc2c(c1)oc(=O)n2CC(=O)OCC,-1.0%,1.5
CCn1cc(C(=O)OCC(=O)Nc2cccc(Cl)c2C)c(=O)c2ccc(C)nc21,0.7%,-0.9
CCc1ccc(CN(Cc2ccco2)C(=O)c2ccc(OC)cc2)cc1,1.1%,2.7
O=C(CC(NCc1cccnc1)C(=O)O)Nc1ccc(F)cc1 (stereo not drawn),0.0%,-0.5
O=C(COc1ccc(F)cc1)Nc1ccc2nc(SCC(=O)N3CCOCC3)sc2c1,0.5%,3.7
Cc1ccc2c(c1)Cc1c(nc(-c3ccc(F)cc3)nc1SCC(=O)N1CCCCC1)O2,-0.6%,0.0
CCCSc1nnc2c(n1)OC(c1ccc(Br)s1)Nc1ccccc1-2 (stereo not drawn),-0.8%,0.8
Cc1ccc(-n2nnc(-c3nsc(NC(=O)c4ccc(C)c(C)c4)n3)c2C)cc1,1.1%,-0.1
O=C(C1CC1)N1CCc2cc(Br)cc(S(=O)(=O)N3CCN(c4ccccc4F)CC3)c21,0.3%,-0.1
CCN(CC)C(=O)c1sc2c(c1C)c(=O)n(-c1ccc(Cl)c(Cl)c1)c(=O)n2Cc1cc(=O)n2ccccc2n1,0.7%,1.3
Cc1ccc(-c2cc(C(F)(F)F)n3nc(-c4ccc(Cl)cc4)cc3n2)cc1,3.6%,0.2
Cc1cccc(NC(=O)CN2c3ccccc3S(=O)(=O)c3ccccc32)c1C,0.0%,2.3
COc1cccc(N2CCN(c3ncnc4c3c(-c3ccccc3)cn4-c3ccc(F)cc3)CC2)c1,1.2%,2.8

# Gathered by group: the entries above with a COOH group.
SMILES,PINK1 modulator,TRPML1 ag
CC(=O)OCC1=C(C(=O)O)N2C(=O)C(NC(=O)Cc3ccccc3)C2SC1 (stereo not drawn),-0.2%,-0.3
O=C(CC(NCc1cccnc1)C(=O)O)Nc1ccc(F)cc1 (stereo not drawn),0.0%,-0.5
